From PubChem BioAssay
TsaE inh = YjeE (TsaE) inhibition, E. coli | purified YjeE, fluorescence polarisation of a bound ADP probe | Potency, µM | P0AF67 | AID 605 | 71,000 compounds, 0.05% hits; active = well fitted falling curve; inconclusive = weaker or top-dose-only fall, or a rising curve; inactive = flat or poorly fitted curve;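 note: top concentration of the series not given in the record; excess ADP was the control for the full effect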
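Fluorescence polarization of a BODIPY Texas Red–ADP probe (2 uM) bound to purified YjeE (10 uM) was read after 15 min room-temperature incubation with compounds. Loss of polarization marks inhibitors; ADP serves as titrated control.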
Bst PK mod = modulators of Bacillus stearothermophilus pyruvate kinase | Potency, µM | partly purified Bacillus stearothermophilus pyruvate kinase, luminescence ATP production; ribose 5-phosphate activator present at AC10 | 51,000 compounds, 1.2% hits | AID 361; in the data active means potency below about 11 µM; inconclusive means mostly about 12 µM to 25 µM; inactive means weaker than that;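 the screen sought inhibitors and activators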;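 note: potency is the fitted concentration of half-maximal effect; scaled between full activation by ribose 5 phosphate and full inhibition by luteolin; about four in five hits inhibit and the cells do not say which; series up to 57 µM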
* marks the source's active call; other numbers are inactive results; i = inactive; ? = inconclusive; · = no result given.

SMILES | TsaE inh | Bst PK mod
COc1ccc2nc(N3CCC(O)CC3)c(C#N)cc2c1 | i | ·
CCOc1ccccc1N1CCN(Cc2ccc(OC)c(OC)c2)CC1 | i | ·
CC(=O)Nc1ccc2oc(-c3cc(F)c(F)cc3Cl)nc2c1 | i | >57
Cc1cc(C)n(CCOC(=O)c2sc3ccccc3c2Cl)n1 | i | i
CC(C)CN(C(=O)COC(=O)c1ccc2c(c1)NC(=O)CS2)C1CCS(=O)(=O)C1 (configuration not stated) | i | >57
CCCC(=O)Nc1ccc(C(=O)n2nnc3ccccc32)cc1 | i | >57
O=S(=O)(c1cccs1)N1CCC(Cc2ccccc2)CC1 | i | >57
CCc1nnc(NC(=O)Cn2nnc(-c3ccccc3F)n2)s1 | i | >57
CCOc1ccc(S(=O)(=O)N2CCC(C(N)=O)CC2)c2ccccc12 | i | >57
CCc1nnc(NC(=O)CSc2nnc(COc3ccccc3C)o2)s1 | i | >57
Cc1cccc(N2CC(=O)N(c3cccc(C)c3)CC2=O)c1 | · | >26
COc1ccccc1CNC(=O)CNC(=O)Cn1cnc2ccccc2c1=O | i | >57
CCn1c(NCCc2ccc(OC)c(OC)c2)nc2c1c(=O)n(C)c(=O)n2C | i | >57
COC(=O)c1ccc(C(=O)OC)c(NC(=O)COc2ccccc2OC)c1 | i | >57
Cn1c(-c2ccc(F)cc2)cnc1SCC(=O)NCc1ccco1 | i | >57
Cn1c(=O)n(Cc2ccccc2)c(=O)c2c1nc1n2CCCN1Cc1ccccc1 | i | >57
O=C(Nc1ccc(Cl)cc1)c1ccsn1 | i | i
c1csc(Cc2nn3c(-c4ccncc4)nnc3s2)c1 | · | >26
O=C(Nc1ccc(N2CCN(C(=O)c3ccccc3)CC2)c(Cl)c1)c1ccco1 | i | ·
CCC/C(O)=C1\C(=O)CC(C)(C)CC1=NCCO | i | ·
CC(=O)c1cccc(NC(=O)C2CCCCC2)c1 | i | ·
Cn1cnc([N+](=O)[O-])c1[Se]c1nc(N)nc2c1ncn2[C@@H]1O[C@@H](CO)[C@H](O)[C@@H]1O | i | ·
O=C(C1CC1)N1CCc2cc(Br)cc(S(=O)(=O)NCc3ccc4c(c3)OCO4)c21 | i | >57
Cc1ccc2[nH]c(=O)c(CN(Cc3ccco3)C(=O)c3ccncc3)cc2c1 | i | >57
CCCCCCN1CC(O)=C(c2nc3ccccc3[nH]2)C1=N | i | >57
C[C@@H](C(=O)Nc1ccc2ccccc2c1)[C@@H]1C[C@@]1(C)[C@@H](NS(=O)(=O)c1ccc2ccccc2c1)c1ccccc1 | i | ·
CC(C)(C)C(=O)OCCn1c(=O)c2cc3c(=O)n(CCOC(=O)C(C)(C)C)c(=O)c3cc2c1=O | i | >57
CCCc1nnc(NC(=O)Cn2c(=O)sc3ccccc32)s1 | i | >57
COCCN(CCOC)S(=O)(=O)c1ccc(C(=O)Nc2nnc(C)o2)cc1 | i | >57
CCCS(=O)(=O)N1CCN(c2ccccc2F)CC1 | i | >57
O=C(Nc1cccc2nsnc12)C1CC(=O)N(c2ccccc2)C1 (configuration not stated) | i | >57
CCOCCn1c(CN2CCOCC2)nc2c1c(=O)[nH]c(=O)n2C | i | ·
COc1cc(-n2c(=O)c3ccccc3n(Cc3cccnc3)c2=O)cc(OC)c1OC | i | >57
Cn1c(=O)c2cc(S(=O)(=O)NCCC(=O)NCCC3=CCCCC3)ccc2n(C)c1=O | i | >57
CC(=O)Nc1ccc(NC(=O)CCC(=O)NCCO)cc1 | i | ·
O=C(O)C1CC=C(Cl)CC1C(=O)NCc1ccccc1 (configuration not stated) | i | >57
O=C(Nc1ccc(N2CCOCC2)cc1N1CCOCC1)c1ccco1 | i | >57
CCCn1c(C)nc2c(NCCN(C(C)C)C(C)C)nc(C)nc21 | i | ·
O=C(O)c1cc(Cl)ccc1NC(=O)C1CCCO1 (configuration not stated) | i | >57
O=C(Nc1nc2ccc(Cl)cc2s1)c1ccc(Br)o1 | i | ·
COc1cc(C2Nc3ccc4ncccc4c3C3=C2C(=O)CCC3)cc(OC)c1O (configuration not stated) | i | >57
CC1(C)Cc2c(c(=S)nc(-c3ccccc3)n2CCN2CCOCC2)CO1 | i | >57
Cc1nc(SCC#N)c2c(C)c(C)sc2n1 | i | >57
CCCCCn1c(Sc2ncccn2)nc2c1c(=O)[nH]c(=O)n2C | i | >57
COc1cccc(OC)c1C(=O)Nc1cccc(C(C)=O)c1 | i | ·
CC(=O)Cc1nsc(NC(=O)c2ccc(-c3ccccc3Cl)o2)n1 | i | ·
CC(Cc1ccccc1)C(=O)NCc1ccccn1 (configuration not stated) | i | ·
COc1ccc(Oc2ncc3nc(-c4ccc(OC)cc4)c(=O)n(Cc4cccs4)c3n2)cc1 | i | ·
CC(C)=C(NC(=O)c1ccccc1)C(=O)N1CCOCC1 | i | ·
CC(C#N)Sc1nc2ccccc2c(=O)n1-c1ccccc1 (configuration not stated) | i | >57
CC1CCCc2sc3nc(N4CCN(CCO)CC4)n4ncnc4c3c21 (configuration not stated) | i | ·
NC(=O)c1oc2ccc(Cl)cc2c1NC(=O)CN1CCOCC1 | i | ·
COc1ccc(S(=O)(=O)N(C)CC(=O)NC2CC2)cc1 | i | >57
FC(F)(F)c1ccccc1-n1ccnc1 | i | ·
CCC(C(=O)Nc1cnccn1)c1ccccc1 (configuration not stated) | i | >57
COCC(C)NC(=O)c1cc(-c2ccc(O)cc2)on1 (configuration not stated) | i | ·
O=C(CCCCn1c(=O)c2ccccc2n(Cc2ccc(F)cc2Cl)c1=O)NCc1ccco1 | i | >57
O=C1CC(c2ccc(F)cc2)Cc2nc(N3CCN(c4ccccc4)CC3)ncc21 (configuration not stated) | i | >57
O=C(NC1CCCCC1)N(Cc1nc2ccccc2c(=O)[nH]1)C1CCCCC1 | i | >57
CCCCCOC(=O)CSc1nnc(-c2cc(OC)c(OC)c(OC)c2)o1 | i | >57
Going on with the list.
SMILES | TsaE inh | Bst PK mod
COCCNC(=O)C(c1ccc(C)o1)N(C(=O)c1snc(C(N)=O)c1N)c1ccc(C)c(C)c1 (configuration not stated) | i | >57
COc1ccccc1-n1c(C)nnc1SCC(N)=O | i | >57
O=c1[nH]cnc2nc(-c3ccccc3)c(-c3ccccc3)nc12 | i | >57
O=C(Nc1ccc(S(=O)(=O)N2CCCCCC2)cc1)c1ccc(Br)o1 | i | ·
O=C(CSc1ccc2nnc(-c3cccnc3)n2n1)NCc1ccco1 | i | ·
Fc1ccc(C(c2nnnn2Cc2ccccc2)N2CCSCC2)cc1 (configuration not stated) | i | >57
O=C(c1cc(-c2cccnc2)nc2ccc(Br)cc12)N1CCC2(CC1)OCCO2 | i | >57
CSc1ccc(/C=N/n2nnnc2N)cc1 | i | >57
CC(=O)Nc1cc2c(cc1C(=O)C(C)C)OCCO2 | i | >57
CCn1c(COc2ccccc2)nnc1SCc1ccc(C#N)cc1 | i | >57
CC(C)Nc1nc(SCC(=O)Nc2ccccc2)nc(N2CCOCC2)n1 | i | >57
CC(C)(C)OC(=O)N1CC(O)CC1C(=O)OCC(=O)c1ccc(Cl)cc1 (configuration not stated) | i | >57
O=c1c(-c2ccccc2)nc2cncnc2n1Cc1ccccc1Cl | i | ·
COc1ccc(Oc2ncc3nc(-c4cn(C)c5ccccc45)c(=O)n(CCC#N)c3n2)cc1 | i | ·
Cc1cc(C)cc(OCc2nnc(SCC(=O)OC3CCCCC3)o2)c1 | i | >57
O=C(NCc1ccc2c(c1)OCO2)c1ccc(-c2ccc(Cl)cc2)o1 | i | ·
O=C(CCN1C(=O)c2ccccc2S1(=O)=O)Nc1ccc2c(c1)OCCO2 | i | >57
CN(C)c1ccc(-c2cncnc2NCCN2CCOCC2)cc1 | i | ·
Cc1ccc(/C=c2\sc3nc(-c4cccnc4)nn3c2=O)cc1 | i | ·
CC(=O)Nc1cccc(OCC(=O)Nc2ccccc2)c1 | i | >57
CC(C)C(c1nnnn1CC1CCCO1)N1CCN(C2CCCC2)CC1 (configuration not stated) | i | >57
CCSc1nncn1/N=C/c1ccc(OC)c(OC)c1 | i | ·
NC(=O)N1CC(O)CC1C(=O)Nc1ccc(Cl)c(Cl)c1 (configuration not stated) | i | >57
CCOC(=O)N1CCN(S(=O)(=O)c2cc3c(cc2C)NC(=O)CO3)CC1 | i | >57
CC(=O)c1ccc(Nc2cc(C)nc3nc(C)nn23)cc1 | i | ·
COc1ccc2oc(=O)c(-c3nc(C)cs3)cc2c1 | · | >26
CCOC(=O)c1ccc(N2C(=O)C3CC=C(C)CC3C2=O)cc1 (configuration not stated) | i | ·
CC(C)CN1CCC2(CC1)CCN(C(=O)c1cnccn1)CC2 | i | ·
CCOC(=O)N1CCC(NC(=O)C2CCN(S(=O)(=O)c3cccc4cccnc34)CC2)CC1 | i | ·
CC1CCN(C(=O)CSc2nnc(-c3ccc(S(=O)(=O)N4CCOCC4)cc3)n2C)CC1 | i | >57
COc1ccccc1OCc1nc(C#N)c(NCc2ccco2)o1 | i | >57
O=C(c1cc(C(F)(F)F)cc(C(F)(F)F)c1)N1CCC2(CCCN(Cc3ccccc3)C2)CC1 | i | ·
c1ccc(CSc2ncn(-c3ccccc3)n2)cc1 | i | ·
CCCCS(=O)CC(CS(=O)CCCC)OC(=O)c1ccc(C)cc1 (configuration not stated) | i | ·
CCCOc1ccc(C2C(=O)N(C3CCCCC3)CC(=O)N2CCC)cc1OC (configuration not stated) | i | >57
CCCNC(=O)CCNC(=O)c1ccc(C(C)(C)C)cc1 | i | >57
O=C(Cc1cccs1)N(Cc1ccco1)C1(C(=O)NC2CCCC2)CCCCC1 | i | >57
CCOc1cc(N2CCOCC2)c(OCC)cc1NC(=O)Cn1[nH]c(=O)c2ccccc2c1=O | i | >57
Cc1cc(C)n(-c2ccc(C(=O)OCC(=O)N(CC(C)C)C3CCS(=O)(=O)C3)cc2)n1 (configuration not stated) | i | >57
O=S(=O)(NCC1CCCO1)c1ccc2oc3ccc(S(=O)(=O)NCC4CCCO4)cc3c2c1 (configuration not stated) | i | >57
COc1ccc(C(C)(C)C)cc1NC(=O)C1C2C=CC(C2)C1C(=O)O (configuration not stated) | i | >57
COc1ccccc1C(=O)Nc1ccc(S(=O)(=O)N2CCCC2)cc1 | i | >57
COc1ccc(C(=O)Nc2cc(Cl)cc(Cl)c2)c(OC)n1 | i | >57
Oc1ccc(Nc2nc(-c3ccc(O)cc3)cs2)cc1 | i | 8*
COc1cc(C(=O)OCC(=O)NCc2ccco2)cc(OC)c1OC | i | >57
COC(=O)CSc1cc(SCC(=O)OC)c(C#N)c(SCC(=O)OC)c1 | i | >57
Cc1occc1-c1nnc(SCC(=O)Nc2nccs2)n1Cc1ccco1 | i | >57
O=C(NCc1ccncc1)c1ccc(Br)o1 | i | ·

One compound at a time, from the list above:
CC(C#N)Sc1nc2ccccc2c(=O)n1-c1ccccc1 (configuration not stated) is entered as TsaE inh = i; Bst PK mod = >57
COCCNC(=O)C(c1ccc(C)o1)N(C(=O)c1snc(C(N)=O)c1N)c1ccc(C)c(C)c1 (configuration not stated) is entered as TsaE inh = i; Bst PK mod = >57
CCOC(=O)N1CCC(NC(=O)C2CCN(S(=O)(=O)c3cccc4cccnc34)CC2)CC1 is entered as TsaE inh = i; Bst PK mod = ·

Returning to the listing, repeating the 7 entries before the break.
SMILES | TsaE inh | Bst PK mod
COc1ccccc1C(=O)Nc1ccc(S(=O)(=O)N2CCCC2)cc1 | i | >57
COc1ccc(C(=O)Nc2cc(Cl)cc(Cl)c2)c(OC)n1 | i | >57
Oc1ccc(Nc2nc(-c3ccc(O)cc3)cs2)cc1 | i | 8*
COc1cc(C(=O)OCC(=O)NCc2ccco2)cc(OC)c1OC | i | >57
COC(=O)CSc1cc(SCC(=O)OC)c(C#N)c(SCC(=O)OC)c1 | i | >57
Cc1occc1-c1nnc(SCC(=O)Nc2nccs2)n1Cc1ccco1 | i | >57
O=C(NCc1ccncc1)c1ccc(Br)o1 | i | ·
CN(C)S(=O)(=O)Nc1ccc(Oc2ccccc2)cc1 | i | >57
CC1Cc2ccccc2N1S(=O)(=O)c1ccc2c(c1)n(C)c(=O)c(=O)n2C (configuration not stated) | i | >57
C=CCn1c(SCc2c(F)cccc2Cl)nnc1-c1ccco1 | i | >57
Cc1ccc(C(=O)CSC2=C(C#N)C(c3ccco3)CC(=O)N2)c(C)c1 (configuration not stated) | i | ·
CCC(C)[C@H](NC(=O)NCc1cccc(OC)c1)C(=O)OC (some centres not stated) | i | >57
O=C(c1ccc(N2CCOCC2)cc1)c1cccs1 | i | ?
COc1ccccc1/C=c1\sc2nc(-c3ccco3)nn2c1=O | i | >57
CCCc1c(O)nc(SCCN(CC)CC)n(C(=O)c2ccccc2)c1=O | i | >57
COC(=O)C1=C(C)N=C2SC(C)C(=O)N2C1c1ccc(C(=O)OC)cc1 (configuration not stated) | · | >26
CC(C)(C)n1nc2c(c1NC(=O)c1cccc(C(F)(F)F)c1)CS(=O)C2 (configuration not stated) | i | >57
COc1cc2c(cc1OC)C(C)N(C(=O)C1COc3ccccc3O1)CC2 (configuration not stated) | i | ·
Cc1nnc(NC(=O)CCC(=O)N2CCN(CCc3ccccc3)CC2)s1 | i | >57
CC(=O)Nc1ccc(N2S(=O)(=O)c3ccccc3S2(=O)=O)cc1 | i | >57
COc1ccc(-n2c(Cc3cccn3C)nnc2SCC(=O)NCc2ccco2)cc1 | i | ·

This is a subset; the hit share may differ from the screen's.
